# From PubChem
# LANA-H2A inh: blocks KSHV LANA binding to histone H2A/H2B; Q9QR71; cell-free LANA-H2A/H2B peptide, fluorescence polarization; inhibition, % (test concentration not listed); actives 0.6% (n = 320,000); in the data active means inhibition mostly above about 10%, no sharp cut-off; inactive means mostly below about 6.7%;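 further: stock transfer was 7.5 nL into about 10 µL; 0% = median of vehicle wells and 100% = median of positive control wells; one replicate is shown; the record names a cut of 25% in any replicate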
# Target sequence (Q9QR71 whole entry, looked up): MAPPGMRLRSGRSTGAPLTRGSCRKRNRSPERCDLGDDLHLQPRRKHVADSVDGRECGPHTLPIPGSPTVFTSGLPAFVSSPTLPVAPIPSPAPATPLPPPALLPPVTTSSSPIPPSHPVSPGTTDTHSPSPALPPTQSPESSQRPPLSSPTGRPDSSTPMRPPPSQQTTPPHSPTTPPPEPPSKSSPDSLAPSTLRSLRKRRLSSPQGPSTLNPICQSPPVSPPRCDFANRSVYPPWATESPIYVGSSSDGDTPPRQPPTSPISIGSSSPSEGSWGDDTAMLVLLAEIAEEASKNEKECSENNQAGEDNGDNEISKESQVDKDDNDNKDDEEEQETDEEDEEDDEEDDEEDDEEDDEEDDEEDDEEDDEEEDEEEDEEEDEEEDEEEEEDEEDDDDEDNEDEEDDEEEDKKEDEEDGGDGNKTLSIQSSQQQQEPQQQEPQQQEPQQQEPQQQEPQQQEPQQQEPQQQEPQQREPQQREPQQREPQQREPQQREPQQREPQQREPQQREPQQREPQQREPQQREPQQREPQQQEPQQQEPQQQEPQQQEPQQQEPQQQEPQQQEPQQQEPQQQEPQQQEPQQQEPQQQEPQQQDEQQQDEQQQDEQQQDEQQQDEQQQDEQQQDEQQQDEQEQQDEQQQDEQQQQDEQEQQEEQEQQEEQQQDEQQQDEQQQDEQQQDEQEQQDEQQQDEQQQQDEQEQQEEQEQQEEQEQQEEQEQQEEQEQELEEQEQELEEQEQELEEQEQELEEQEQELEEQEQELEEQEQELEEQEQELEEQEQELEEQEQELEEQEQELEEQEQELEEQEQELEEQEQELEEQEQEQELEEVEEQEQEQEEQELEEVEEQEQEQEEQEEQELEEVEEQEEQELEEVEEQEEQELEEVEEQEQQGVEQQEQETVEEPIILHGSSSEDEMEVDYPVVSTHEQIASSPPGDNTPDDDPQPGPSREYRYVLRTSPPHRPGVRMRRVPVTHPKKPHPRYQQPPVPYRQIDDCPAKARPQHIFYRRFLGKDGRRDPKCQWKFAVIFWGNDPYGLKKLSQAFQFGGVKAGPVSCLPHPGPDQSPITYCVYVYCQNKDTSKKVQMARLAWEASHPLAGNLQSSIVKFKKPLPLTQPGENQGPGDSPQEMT
# Beta apoptosis: blocks beta cell apoptosis; INS-1E cytokine-induced death, ATP luminescence, 48 h; percent of positive-control rescue, neutral wells zero; protection from apoptosis, % (concentration not given with the values); actives 0.8% (n = 300,000);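 active means all replicates at 75% or more, or half of them and the mean; inconclusive means half reach 75% but not the mean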;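 further: 0% = cytokine-treated negative control wells and 100% = positive control rescue; higher means more ATP so stronger rescue from cytokine killing; wells of about 40 µL received 100 nL stock; the first replicate is given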
# RanGTP-Imp inh: disruptors of Ran-importin-beta complex formation – biochemical, FRET, CFP-Ran, YFP-importin-beta, homogeneous, primary screen. actives 1.1% (n = 300,000). cell-free CFP-Ran/YFP-importin-beta FRET ratio. inhibition, % (no concentration beside the values). AID 2216;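 active means most replicates above 15%; inconclusive means exactly half above 15%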;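 further: 0% = DMSO wells and 100% = Ran loaded with GDP instead of GTP; wells of about 40 µL received 100 nL stock; the first replicate is given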
# B2AR ag: human beta-2 adrenergic receptor agonism by FAP | P07550 | Am2.2-beta2AR cells, FAP receptor internalization, flow cytometry; reference of the scale not given here | response, % (no concentration beside the values) | actives 0.43% (n = 340,000);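 active means response above a set limit, near 3 SD of response in nonfluorescent compounds, cut at about 42% in these data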;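 further: stock transfer was 100 nL into about 11 µL; a reference agonist was the positive control; negative values mostly stem from fluorescent compounds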
# UCH37 DUB inh: blocks the human deubiquitinase UCH37. purified proteasome/UCH37, Ub-AMC cleavage fluorescence. inhibition, % (concentration not given with the values). actives 0.33% (n = 330,000). AID 588478;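 active means mean of two replicates above 20%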;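 further: 0% = compound-free wells with enzyme and 100% = wells lacking proteasome; stock transfer was 100 nL into about 20 µL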
#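 Assay system: Proteasome-bound UCH37. Buffer or medium: pH 7.4 Tris-HCl (50 mM) with ovalbumin, ATP-MgCl2, DTT. Incubation: 30 min preincubation with enzyme, 25 min cleavage at room temperature. Measured by: fluorescence, ex 355 nm, em 460 nm. Read-out basis: percent inhibition. Control set: wells without proteasome as full block, compound-free enzyme plus substrate as uninhibited.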
# Calb FLC: affects C. albicans growth with fluconazole; C. albicans CaCi-2 (fluconazole-resistant clinical isolate) + fluconazole, Alamar Blue growth, 48 h; growth inhibition, % (concentration not given with the values); actives 0.57% (n = 300,000);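 active means most replicates above 75%; inconclusive means exactly half above 75%; inactive means most below 75%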;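 further: all wells also contain fluconazole at 8 µg/ml as a sub-toxic cotreatment; 0% = median of DMSO wells and 100% = median of geldanamycin control wells; wells of about 8 µL received 7.5 nL stock; the first replicate is given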
# T cruzi inh: blocks replication of Trypanosoma cruzi. inhibition, % (concentration not given with the values). AID 1885. T. cruzi beta-gal in NIH3T3, luminescence, 90 h. actives 1.4% (n = 300,000);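 active means mean inhibition across valid replicates above about 55%, limit read from the data; inconclusive means mean below that limit but half or more replicates reach it; inactive means mean below it, under half of replicates reach it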;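 further: signal also drops with host cell toxicity which is not excluded here; 0% = plate median of DMSO wells and 100% = zero luminescence signal; higher percent means less beta-gal luminescence so fewer parasites; stock transfer was 50 nL into about 50 µL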
# A1 inh: inhibitors of the anti-apoptotic protein A1, read as caspase activation; MEF A1-2A-BIM cells, Caspase-Glo 3/7 luminescence, 3 h; percent of clofoctol response, vehicle zero; caspase activation, % (no concentration beside the values); actives 0.066% (n = 330,000);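 active means over half of replicate activation scores above 10%, or exactly half above 10 with the replicate mean above 10; inconclusive means replicate mean below 10 yet half the replicates above 10; inactive means over half of replicates below 10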;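 further: wells of about 30 µL received 50 nL stock; many hits fall short of the cut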
# Active calls of the source: *; i = inactive; ? = inconclusive; / = not tested or not shown.
SMILES,LANA-H2A inh,Beta apoptosis,RanGTP-Imp inh,B2AR ag,UCH37 DUB inh,Calb FLC,T cruzi inh,A1 inh
O=c1c2c3c(sc2nc2n1CCC2)CCCC3,-1.7,2.4,-1.1,-5.9,2.7,1.0,-8.0,-0.7
Cc1ccc(NS(=O)(=O)c2cccs2)cc1S(=O)(=O)N1CCCCCC1,-3.5,/,0.5,3.9,4.3,1.2,0.9,0.1
COc1cc(S(=O)(=O)NCC2CCCO2)ccc1Br (stereo unspecified),5.2,-9.0,?,-4.8,-0.8,0.5,-9.6,0.2
CCN(CC)S(=O)(=O)c1ccc(N2CCOCC2)c(NC(=O)Cc2ccccc2F)c1,-2.2,-4.5,1.5,9.0,2.6,5.9,11.6,0.6
CCS(=O)(=O)N1CCC(C(=O)Nc2cccc(F)c2)CC1,1.1,2.5,-0.4,-0.9,-0.8,-13.3,2.4,-0.3
CSc1nc2nc3c(c(=O)n2[nH]1)CN(Cc1ccccc1)CC3,-1.8,/,-0.3,-2.0,0.7,3.0,2.7,2.5
Fc1ccc(NC(=S)N2CCCC2)cc1Cl,0.7,-1.2,-2.3,4.8,2.1,-10.5,2.2,0.4
OCCC1CN(CC#Cc2ccccc2)CCN1C1CCCC1 (stereo unspecified),-0.7,-6.8,-1.3,13.5,-0.6,-10.8,4.2,1.3
C=CC[C@@H](CC(=O)OC(C)(C)C)C(=O)OC[C@@H]1CCCN1C(=O)[C@@H](CC=C)CC(=O)N[C@H](CO)Cc1ccccc1,1.5,-3.1,/,6.8,0.0,/,/,-0.3
COCc1ccc(CN2CCC(N3CCC(C(=O)N4CCCC4)CC3)CC2)o1,/,/,2.9,7.0,/,-10.7,-6.2,/
CCN(CC)C(=O)c1ccc(Cn2cc([N+](=O)[O-])cn2)o1,-2.7,-3.1,-0.1,-4.2,2.0,-14.5,1.2,-0.4
Cc1ccc([N+](=O)[O-])c(C(=O)N/N=C/c2cccs2)c1,1.9,-0.6,-2.9,-3.8,/,-5.6,-11.8,0.1
CCCCn1c(=O)[nH]c(=O)c2c1nc(-c1cc(Br)ccc1OC)n2C,-2.8,2.5,-2.0,-15.8,3.2,-16.8,29.6,-0.3
COC(c1ccccc1)c1nnc(CCC(=O)N(C)Cc2cccc(-n3cccn3)c2)o1 (stereo unspecified),-0.3,-2.4,6.2,-18.4,-0.2,3.1,14.0,0.0
Cc1cccc(C)c1N1CCN(S(=O)(=O)c2ccccc2)CC1,2.6,-4.6,-2.8,-12.6,0.3,-17.6,4.7,0.1
COc1ccc(N(CC(=O)Nc2cccc(F)c2)S(=O)(=O)c2c(C)[nH]c(=O)[nH]c2=O)cc1,/,/,-4.5,-3.0,3.4,-2.4,-13.2,/
CCC(C)OC(=O)C[N+](C)(C)CCOC1CC2CCC1(C)C2(C)C (stereo unspecified),-32.6,18.7,22.4*,7.1,5.6,87.1*,64.0*,-0.5
CCOC(=O)C(=CNc1ccc(NC2=NCC(C)S2)cc1)C(=O)OCC (stereo unspecified),3.7,-0.9,4.3,-5.8,-1.0,-14.3,17.7,0.4
Cc1cc(C)n2nc(SCC(=O)N3CCC(C)CC3)nc2n1,0.4,0.4,/,-6.9,4.5,/,/,0.9
COc1ccccc1C(=O)Nc1ccc(S(=O)(=O)N2CCC(C)CC2)cc1,-4.9,4.7,-2.6,2.3,1.8,1.4,15.7,0.7
CC1CCN(C(=O)Cc2nn(C)c(=O)c3ccccc23)CC1,-1.0,1.9,3.1,2.3,1.9,31.6,-27.5,-0.3
COc1ccc(/C(C)=C2\SC(=S)N(CCC(=O)O)C2=O)cc1,-0.1,4.7,3.8,1.2,16.0,6.8,13.5,0.9
C=CC[C@H](CC(=O)N(CCO)Cc1ccccc1)C(=O)NC[C@H](OC(=O)[C@@H](CC=C)Cc1ccc(F)cc1)c1ccccc1,0.4,13.0,/,22.7,3.4,/,/,-0.2
COc1ccc(C(=O)CCN2CCC(C)CC2)cc1,-1.9,-6.9,-1.8,3.3,4.8,0.2,-0.2,-0.6
CCOc1ccc(NC(=O)COC(=O)CCN2C(=O)C3CC=CCC3C2=O)cc1OCC (stereo unspecified),40.2*,1.3,/,-0.3,2.8,/,/,-0.3
# Next structures follow:
SMILES,LANA-H2A inh,Beta apoptosis,RanGTP-Imp inh,B2AR ag,UCH37 DUB inh,Calb FLC,T cruzi inh,A1 inh
COc1ccc(CSc2nc(O)cc(=O)n2CC(C)C)cc1F,2.7,-7.3,3.3,13.7,6.3,-7.6,-9.3,0.6
Cc1onc(-c2ccccc2Cl)c1C(=O)NCc1nc(-c2ccccc2)no1,-5.4,-4.6,8.4,13.2,3.3,-18.1,9.6,-0.2
COc1cccc(N(C(=O)c2ccco2)C(C(=O)NC2CCCC2)c2ccc(N3CCOCC3)cc2)c1 (stereo unspecified),-2.5,1.4,3.7,-0.1,0.3,-15.6,-16.1,0.6
CC1=CC(C)(C)NC(=S)N1c1ccc(C)cc1,-0.9,-4.4,6.0,-0.9,1.9,-13.9,-33.1,0.4
O=C(NNC(=O)c1ccccc1F)C1=NN(c2ccccc2)C(=O)CC1,0.5,3.7,3.1,-3.3,5.2,/,0.5,0.1
CCC(C)c1ccccc1NC(=O)c1cccnc1 (stereo unspecified),2.4,-3.4,-3.2,7.4,1.2,-6.1,-6.6,0.5
COC(=O)c1c(NC(=O)/C=C/c2ccc3c(c2)OCO3)sc(C)c1C,-7.1,-4.8,?,6.3,-34.4,4.3,-5.2,0.2
Cc1ccc(NC(=S)N2CCC(O)CC2)c(C)c1,4.3,-3.2,-2.2,6.1,1.7,-22.7,-10.1,0.4
CN(C)C(=O)N1CCC(C(=O)N2CCCC(C(=O)c3ccc(C(C)(C)C)cc3)C2)CC1 (stereo unspecified),-1.4,9.5,4.3,4.2,0.9,-42.8,29.4,0.9
COc1ccccc1NCCC#N,-5.5,-2.6,-2.5,1.4,0.9,3.4,-4.3,0.1
Fc1ccc(CNCc2cccc(Br)c2)cc1,1.7,-16.3,-5.2,-0.8,-0.1,-0.7,-15.9,1.8
Cc1ccc(N(C(=O)CNC(=O)c2ccco2)C(C(=O)NCC2CCCO2)c2ccccc2)cc1C (stereo unspecified),0.4,-3.8,2.4,-3.4,1.8,2.4,1.1,0.4
CCOc1ccc(C(=O)C(C)=O)c(OCC)c1,-8.9,-1.1,-5.8,-0.9,3.6,6.5,-6.4,-0.5
COc1ccc(C(=O)c2cnc(C(C)C)n2C)cc1,-0.6,-12.1,-0.4,4.0,2.6,-29.2,-9.2,-0.2
CC1(c2ccccc2)CC(c2ccccc2)=Nc2ccccc2N1 (stereo unspecified),1.2,/,3.5,-2.7,1.5,2.2,-2.8,-5.0
COc1ccc(C(C)C)cc1S(=O)(=O)NCc1ccccn1,-1.5,-8.0,6.4,-3.1,0.3,31.4,3.7,0.7
CCOC(=O)N1CCC(NC(=O)CN2C(=O)CSc3nc(C)cc(C)c32)CC1,1.6,-1.8,1.9,6.0,2.1,5.6,-22.3,-0.1
CCCCN(CC)Cc1c(O)ccc2c(-c3ccccc3)cc(=O)oc12,2.5,13.4,0.8,-6.2,-52.6,-4.6,30.5,0.0
Cc1c(NS(=O)(=O)c2ccc(C(=O)NCc3ccc(F)cc3)cc2)c(=O)n(-c2ccccc2)n1C,0.9,-1.6,/,7.8,5.2,/,/,0.4
CCOc1ccc(/C=N/NC(=S)NC2CC3CCC2C3)cc1 (stereo unspecified),0.2,10.0,5.3,-8.5,/,-16.8,12.0,0.6
O=[N+]([O-])c1ccc2oc(C(O)c3cccc(Cl)c3)cc2c1 (stereo unspecified),3.2,2.4,-0.2,-6.7,-2.1,6.4,3.4,0.8
Clc1cccc(N/N=C/c2ccncc2)c1,5.0,3.2,0.4,17.0,/,92.7*,22.8,-0.8
N#Cc1c(C(F)(F)F)cc(=O)n2c1[nH]c1ccccc12,-1.0,19.6,91.2*,16.1,i,-3.8,-25.3,-10.0
CCn1c(C)nc([N+](=O)[O-])c1Sc1ccc(F)cc1,-8.2,-15.3,2.6,3.6,7.4,-14.5,-9.9,-1.3
Cc1nnc2sc(SCC(=O)Nc3cccc(Cl)c3)nn2c1=O,2.6,3.3,-2.2,-5.9,3.9,6.1,-7.7,1.0

# Compound profiles (already shown). Order of values: LANA-H2A inh, Beta apoptosis, RanGTP-Imp inh, B2AR ag, UCH37 DUB inh, Calb FLC, T cruzi inh, A1 inh
# `CCCCN(CC)Cc1c(O)ccc2c(-c3ccccc3)cc(=O)oc12` as listed: 2.5, 13.4, 0.8, -6.2, -52.6, -4.6, 30.5, 0.0
# `COc1ccc(C(=O)c2cnc(C(C)C)n2C)cc1` as listed: -0.6, -12.1, -0.4, 4.0, 2.6, -29.2, -9.2, -0.2
# `COC(=O)c1c(NC(=O)/C=C/c2ccc3c(c2)OCO3)sc(C)c1C` as listed: -7.1, -4.8, ?, 6.3, -34.4, 4.3, -5.2, 0.2

# Additional results follow.
SMILES,LANA-H2A inh,Beta apoptosis,RanGTP-Imp inh,B2AR ag,UCH37 DUB inh,Calb FLC,T cruzi inh,A1 inh
CCOc1ccc(S(=O)(=O)NC(C)C(=O)NCc2cccnc2)cc1 (stereo unspecified),2.6,-1.4,-1.7,10.1,3.7,-5.6,-1.3,-0.2
COC(=O)C1(CCSC)NC(c2ccc(OC)cc2OC)C2C(=O)N(c3cccc(C(C)=O)c3)C(=O)C21 (stereo unspecified),3.0,/,1.5,9.9,-0.3,11.5,-4.2,-0.4
COC(=O)C(CC(=O)c1ccc(Br)cc1)n1cccn1 (stereo unspecified),-13.2,-3.2,-3.2,0.7,2.1,-3.4,-10.3,1.0
CCOc1ccccc1NC1c2ccccc2C(=O)N1c1cccnc1 (stereo unspecified),5.2,-6.4,4.0,-2.4,2.5,1.4,-20.0,-0.2
CC(NC(=O)c1ccncc1)C(c1cccs1)N1CCOCC1 (stereo unspecified),-2.8,-3.7,-0.4,10.2,-0.2,-13.9,0.6,0.0
O=c1[nH]c(C2CCN(S(=O)(=O)c3ccccc3F)CC2)nc2c1nnn2Cc1ccc2c(c1)OCCO2,-3.4,2.4,12.0,7.5,4.7,-2.8,-9.1,1.0
Cc1cc(CN(C)C(=O)c2cc(COc3ccc(C)c(C)c3)on2)on1,-1.7,-0.8,1.4,-15.4,3.9,-14.4,-3.2,-0.3
COc1cccc(C2c3[nH]c4ccccc4c3C[C@H]3C(=O)N(C4CCN(Cc5ccccc5)CC4)CC(=O)N23)c1 (stereo partly specified),0.6,0.4,0.3,13.8,2.5,-0.2,?,?
Cc1cc(C(=O)Nc2cccc(C(=O)O)c2)oc1C,-8.2,0.0,1.7,-14.8,4.4,-9.0,4.5,-8.5
Cc1nnc(SCC(=O)Nc2ccccc2F)n1-c1ccc(F)cc1,-2.2,1.9,4.6,-3.3,2.4,-4.2,1.8,0.5
CCOP(=O)(OCC)C(NC(=O)Nc1cccc(Cl)c1)c1ccccc1 (stereo unspecified),-2.7,-9.2,-3.4,-1.6,1.1,4.2,-4.5,0.3
CCC(c1nnnn1CC1CCCO1)N(CCCO)Cc1cc2cccc(C)c2[nH]c1=O (stereo unspecified),-0.8,-2.7,0.1,-0.7,4.2,5.3,-2.7,-0.1
COc1ccc(C(=O)NCc2ccco2)cc1S(=O)(=O)NC1CC1,3.2,1.8,/,7.4,4.1,/,/,-0.3
